# High-throughput results as filed in PubChem.
# TDP1 cell CPT = qHTS for Inhibitors of human tyrosyl-DNA phosphodiesterase 1 (TDP1): qHTS in cells in presence of CPT | chicken DT40 Tdp1-/-;hTDP1 cells + 20 nM CPT, ATP luminescence, 48 h | Potency, µM (highest dose often 46.2 µM), without a hit: at the top dose activity change, negative = growth inhibition, usual class: inhibitors | 12% of 420,000 active; note: nearly all actives have a fitted effect of over 55% in size
#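 Chicken DT40 Tdp1-/- cells complemented with human TDP1, 400 cells/well, exposed to compounds plus 20 nM camptothecin for at least 48 h at 37 C; viability read as ATP content by CellTiter-Glo luminescence.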
# FEN1 inh = qHTS Assay for the Inhibitors of Human Flap endonuclease 1 (FEN1); P39748; Recombinant FEN1 flap cleavage, fluorescence, 15 min; Potency, µM (series often up to 114 µM), for the others: at the highest dose activity change, negative = inhibition, most hits filed as inhibitors; 0.35% of 390,000 active; note: nearly all actives have a fitted effect of over 65% in size
# Target sequence (P39748 whole entry, looked up): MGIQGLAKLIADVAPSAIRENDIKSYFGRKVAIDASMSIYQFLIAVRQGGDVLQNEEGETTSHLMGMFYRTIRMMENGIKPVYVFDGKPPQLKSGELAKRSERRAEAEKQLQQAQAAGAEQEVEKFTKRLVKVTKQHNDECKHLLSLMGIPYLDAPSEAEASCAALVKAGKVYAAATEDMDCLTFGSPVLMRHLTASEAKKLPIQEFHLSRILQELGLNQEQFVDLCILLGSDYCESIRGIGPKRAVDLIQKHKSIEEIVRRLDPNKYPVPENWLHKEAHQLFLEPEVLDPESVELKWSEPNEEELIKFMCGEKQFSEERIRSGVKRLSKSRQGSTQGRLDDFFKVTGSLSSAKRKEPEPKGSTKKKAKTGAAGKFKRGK
#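 Enzyme 10 nM, 15 min RT preincubation with compound; start with substrate 50 nM final; reads at 0 and 15 min; qHTS titration, four-parameter Hill fit.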
# The depositor's hits bear a star; ? = inconclusive. Calls come from the whole dose curve; as a rule, active = well fitted curve in the direction sought with a large enough effect; inconclusive = small, poorly fitted or top-dose-only effect, or another doubt; inactive = no such curve, though single readings can be large; an effect the other way counts as inactive or inconclusive. % is set by controls: 0 for no effect and ±100 for the full control effect; potency is the fitted concentration of half-maximal effect. The list is partial; most or all hits stand in other tables.
1	O=C(CC1CCCCC1)c1c(O)c2ccccc2oc1=O
2	CCC1(c2cccc(O)c2)CCCCN(C)C1 (stereo unspecified)
3	Cn1cc(C(=O)OCC(=O)N2CCCC2)c2ccccc21
4	c1ccc(CCNCc2cccs2)cc1
5	COc1ccc(C(=O)N/N=C/C23CC[C@@H](O)CC2(O)CC[C@@H]2[C@@H]3CCC3(C)C(C4=CC(=O)OC4)CCC23O)cc1 (stereo partly specified)
6	CC(C)(C)[C@]1(O)C[C@@H]2OC(=O)C[C@@]23C(=O)O[C@@H]2OC(=O)[C@@H](O)C213 (stereo partly specified)

screen / no. | 1 | 2 | 3 | 4 | 5 | 6
TDP1 cell CPT | 18µM* | ? | 1% | -15% | -3% | -2%
FEN1 inh | -5% | -14% | -4% | 4% | -12% | -10%

# Single records, as listed above. Order of values: TDP1 cell CPT	FEN1 inh
# `c1ccc(CCNCc2cccs2)cc1` is listed with -15%	4%
# `COc1ccc(C(=O)N/N=C/C23CC[C@@H](O)CC2(O)CC[C@@H]2[C@@H]3CCC3(C)C(C4=CC(=O)OC4)CCC23O)cc1` (stereo partly specified) is listed with -3%	-12%

# (next part)
7	Cn1c(=O)n(CC(=O)N2CCC3(CC2)OCCO3)c(=O)c2ccccc21
8	CCOC(=O)C1CN(C)CCC1=O (stereo unspecified)
9	CC1CCSP(=O)(Oc2ccccc2)O1 (stereo unspecified)
10	CN(C)C(=O)Oc1ccc(OC(=O)c2ccccc2)cc1
11	COP(=O)(OC)C(NC(C)=O)C(Cl)(Cl)Cl (stereo unspecified)
12	Cc1ccc(NC(=O)Nc2cc3c(cc2N2CCCCC2)n(C)c(=O)n3C)cc1Cl

screen / no. | 7 | 8 | 9 | 10 | 11 | 12
TDP1 cell CPT | 6% | -17% | -11% | -19% | 22% | 16µM*
FEN1 inh | 10% | 6% | 3% | 4% | -3% | -22%

# Single values from above.
# no. 7 @ FEN1 inh: 10%
# no. 10 @ TDP1 cell CPT: -19%
# no. 8 @ FEN1 inh: 6%

# 6 compounds picked at random from the list so far, as already listed:
11	COP(=O)(OC)C(NC(C)=O)C(Cl)(Cl)Cl (stereo unspecified)
12	Cc1ccc(NC(=O)Nc2cc3c(cc2N2CCCCC2)n(C)c(=O)n3C)cc1Cl
9	CC1CCSP(=O)(Oc2ccccc2)O1 (stereo unspecified)
10	CN(C)C(=O)Oc1ccc(OC(=O)c2ccccc2)cc1
8	CCOC(=O)C1CN(C)CCC1=O (stereo unspecified)
7	Cn1c(=O)n(CC(=O)N2CCC3(CC2)OCCO3)c(=O)c2ccccc21

screen / no. | 11 | 12 | 9 | 10 | 8 | 7
TDP1 cell CPT | 22% | 16µM* | -11% | -19% | -17% | 6%
FEN1 inh | -3% | -22% | 3% | 4% | 6% | 10%

# Some of these compounds in order of heavy-atom count, highest first.
5	COc1ccc(C(=O)N/N=C/C23CC[C@@H](O)CC2(O)CC[C@@H]2[C@@H]3CCC3(C)C(C4=CC(=O)OC4)CCC23O)cc1 (stereo partly specified)
7	Cn1c(=O)n(CC(=O)N2CCC3(CC2)OCCO3)c(=O)c2ccccc21
3	Cn1cc(C(=O)OCC(=O)N2CCCC2)c2ccccc21
4	c1ccc(CCNCc2cccs2)cc1
8	CCOC(=O)C1CN(C)CCC1=O (stereo unspecified)

screen / no. | 5 | 7 | 3 | 4 | 8
TDP1 cell CPT | -3% | 6% | 1% | -15% | -17%
FEN1 inh | -12% | 10% | -4% | 4% | 6%

# Later entries
# Below each compound: TDP1 cell CPT | FEN1 inh
(13) CCC(C)C1N=C(c2ccccc2)c2cc(Cl)ccc2N(CC(=O)NCc2ccco2)C1=O (stereo unspecified)
  -29% | 11%
(14) CC(C(=O)c1ccc(Cl)cc1Cl)n1cncn1 (stereo unspecified)
  2% | 19%
(15) O=C1C2C3CCC(C3)C2C(=O)N1c1ccc(OS(=O)(=O)c2ccccc2)cc1 (stereo unspecified)
  ? | -3%
(16) CN1CCN(Cc2ccc(N)cc2)CC1
  -4% | 4%
(17) COC(=O)C1=C(c2ccc(F)cc2F)C[C@@H]2CC[C@H]1N2C(=O)NCc1ccc(C(F)(F)F)cc1
  ? | 0%
(18) COc1cccc(-c2nc(CS(=O)CC(=O)N3CCC4(CC3)OCCO4)c(C)o2)c1 (stereo unspecified)
  -5% | 5%
(19) CCOc1ccc(NC(=O)Cn2cc(C(=O)c3ccccc3)c3ccccc32)cc1
  -29% | 1%
(20) O=C(c1ccc2c(c1)N(Cc1ccc(F)cc1)C(=O)c1ccccc1S2)N1CCC2(CC1)OCCO2
  16µM* | -11%
(21) COC(=O)C1=C(c2cccc(C#N)c2)C[C@@H]2CC[C@H]1N2C(=O)NCCO
  -2% | -2%
(22) CCC1(CC)C(=N)N(C)C(=O)NC1=O
  11% | -4%
(23) CCC1C2CC3C4N(C)c5ccccc5C45CC(C2C5O)N3[C@@H]1O (stereo partly specified)
  -14% | -9%
(24) Cc1c(Cl)ccc2sc(N3CCN(C(=O)CCS(=O)(=O)c4ccc(F)cc4)CC3)nc12
  0.58µM* | 4%
(25) COC(=O)C1=C(c2c(C)noc2C)C[C@@H]2CC[C@H]1N2C(=O)N1CCCCC1
  -16% | 10%
(26) Cc1ccc2c(c1)[C@@H]1CN(C)CC[C@@H]1N2C(=O)Nc1cccc(C(F)(F)F)c1
  11µM* | 1%
(27) CCCS(=O)(=O)N1CCC(C(=O)N2CCC3(CC2)OCCO3)CC1
  3% | 3%
(28) CCCCC(=O)N/N=C/c1c(O)n(CC)c(=S)n(CC)c1=O
  18µM* | 16%
(29) c1ccc(C2NCCc3[nH]cnc32)cc1 (stereo unspecified)
  -3% | 18%
(30) COC1=CC(=O)[C@]2(C=C1OC)OC[C@@H]1Oc3c(ccc4c3C=CC(C)(C)O4)C(=O)[C@@H]12
  0.29µM* | -20%
(31) CCC(C)C12CN3CCN(CC(C)(C3)C1O)C2 (stereo unspecified)
  -8% | 17%
(32) Brc1ccc2c(c1)C(OC1CN3CCC1CC3)c1ccccc1CS2 (stereo unspecified)
  13µM* | 6%
(33) c1ccc(C2NCc3ccccc3-n3cccc32)cc1 (stereo unspecified)
  ? | 0%
